Assay outcomes (PubChem BioAssay)
Mtb hypoxia rep: PubChem AID 1159583 | M. tuberculosis hypoxia-regulated fluorescent reporter, fluorescence | fluorescence inhibition, % (test concentration not listed) | hit rate 0.1% among 300,000;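 active = 35 to 45% if threefold the growth effect, above 45% if 1.5-fold the growth effect; inactive = the rest, general growth blockers included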;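 also: wells of about 50 µL received 100 nL stock; 0% = vehicle wells and 100% = reference inhibitor wells; whole bacteria with a GFP reporter of the hypoxia response; strong numbers were not always called active; many hits fall short of the cut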
ugtP null kill: growth inhibition of ugtP-null S. aureus, primary screen, RN4220 ugtP deletion, OD600. growth inhibition, % (concentration not given with the values). hit rate 0.54% among 330,000. 16 h; some inactives read as strong as hits;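 active = z-score under -3 and OD600 up to 0.15 on both plates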;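 also: plate controls were untreated wells for no effect and antibiotic for full effect; wells of about 80 µL received 100 nL stock; the first replicate is given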
Autofluor counter: flagged as autofluorescent in microsphere protease counterscreen; compound autofluorescence counterscreen, microsphere flow cytometry; active compounds read high; fluorescence intensity (no concentration beside the values); hit rate 3.1% among 360,000;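 active = at least 3 SD above the mean of all compounds, about 16000 in these data; inconclusive = too few beads counted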;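 also: 100 nL of 1 mM stock went into each well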
BJeLR viability: MLPCN primary cell-based screen for lethality selective to Ras in HRASV12 cells. BJeLR (HRASV12) viability, CellTiter-Glo ATP luminescence, 48 h; reference of the scale not given here. inhibition, % (test concentration not listed). hit rate 0.17% among 300,000;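 active = replicate mean above 50%; inconclusive = above 50% but judged a plate artefact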;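 also: 50 nL library stock added to about 25 µL; numbers are from one replicate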
PrP 5UTR inh: inhibition of PrP 5' UTR reporter expression; cell-based PrP 5' UTR mRNA reporter, plate reader; hit rate 0.35% among 340,000; inhibition, % (concentration not given with the values); AID 488862, 2010;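 active = every replicate at 50% or more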;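 also: 0 = median of the neutral control wells; tested in H4 reporter cells; numbers are from one replicate; inactives centre near -14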
RN4220 kill: growth inhibition of S. aureus RN4220, primary screen, OD600; 16 h; inhibition, % (test concentration not listed); hit rate 0.33% among 330,000;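 active = z-score of -3 or lower and OD600 up to 0.18 on both plates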;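 also: plate controls were untreated cells for no effect and reference antibiotic for full effect; stock transfer was 100 nL into about 80 µL; one replicate is shown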
Mtb hypoxia rep growth: also measured in Mtb hypoxia rep; calls as there; growth inhibition, %; measured here: M. tuberculosis growth (absorbance);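 0% = vehicle and 100% = reference antibiotic; read after six days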
An asterisk follows results filed as active; ? = inconclusive; . = not tested or not shown.

SMILES	Mtb hypoxia rep	Mtb hypoxia rep growth	ugtP null kill	Autofluor counter	BJeLR viability	PrP 5UTR inh	RN4220 kill
Cc1csc(NC(=O)CSc2nnc(-c3ccoc3C)n2C(C)c2ccccc2)n1 (configuration not stated)	-4	-4	-12	4960	2	-12	7.2
O=C(C1=C[C@H](c2ccc(Br)cc2)C[C@H](OCc2ccc(CO)cc2)O1)N1CCOCC1	.	.	.	3695	2	-9	.
Nn1c(SCC(=O)Nc2nnc(-c3ccccc3)o2)nnc1C1CC1	3	-3	7	?	3	-20	3.6
O=C(c1ccc(NC2=NC3CS(=O)(=O)CC3S2)cc1)N1CCN(c2ccc([N+](=O)[O-])cc2)CC1 (configuration not stated)	11	6	7	5539	-6	-25	4.5
COC(=O)C1=C(C)N=C2SC(C#N)=C(N)N2C1c1cccc(OC)c1 (configuration not stated)	3	-1	-8	3466	-1	-8	1.7
Cc1ccc(C(C[N+](=O)[O-])c2c(C)cc3ccccn23)cc1 (configuration not stated)	10	0	4	2897	7	-9	16
CC(C(O)C12CC3CC(CC(C3)C1)C2)N1CCCCC1 (configuration not stated)	5	2	1	2042	-2	-9	2.5
Cc1ccc(S(=O)(=O)N(C)C)cc1NC(=O)COC(=O)C1=COCCO1	7	7	2	8893	.	-13	0.1
NNC(=O)/C(=C\c1ccco1)NC(=O)c1ccco1	10	4	4	3966	-10	-9	0.5
CC(C)(C)OC(=O)C(Cc1ccccc1)NC(=O)c1nc[nH]c1C(=O)NC(CCCCN)C(=O)OC(C)(C)C (configuration not stated)	-2	-1	2	.	.	.	5.7
COc1cc(NC(=O)C2COc3ccccc3O2)c(OC)cc1Cl (configuration not stated)	.	.	7	2055	-4	-15	-3.6
CCC(=O)N/N=C(\C)CC(=O)Nc1ccc2c(c1)OCCO2	.	.	.	4217	-9	-21	.
Cc1ccc(C(=O)COc2nc(C)nc3ccccc23)cc1	6	-2	-3	4183	-3	-17	0.8
CC(=O)Nc1ccc(S(=O)(=O)NCC(=O)OCC(=O)NCc2ccco2)cc1	-5	0	-5	5935	0	2	-0.6
O=C(c1cc2ccccc2oc1=O)N(Cc1ccccc1F)C1CCS(=O)(=O)C1 (configuration not stated)	9	9	6	5054	-1	-53	2.4

Single records (already shown). Order of values: Mtb hypoxia rep, Mtb hypoxia rep growth, ugtP null kill, Autofluor counter, BJeLR viability, PrP 5UTR inh, RN4220 kill
`O=C(c1ccc(NC2=NC3CS(=O)(=O)CC3S2)cc1)N1CCN(c2ccc([N+](=O)[O-])cc2)CC1` (configuration not stated) is entered as 11, 6, 7, 5539, -6, -25, 4.5
`Nn1c(SCC(=O)Nc2nnc(-c3ccccc3)o2)nnc1C1CC1` is entered as 3, -3, 7, ?, 3, -20, 3.6
`O=C(c1cc2ccccc2oc1=O)N(Cc1ccccc1F)C1CCS(=O)(=O)C1` (configuration not stated) is entered as 9, 9, 6, 5054, -1, -53, 2.4
`CCC(=O)N/N=C(\C)CC(=O)Nc1ccc2c(c1)OCCO2` is entered as ., ., ., 4217, -9, -21, .
`Cc1ccc(C(C[N+](=O)[O-])c2c(C)cc3ccccn23)cc1` (configuration not stated) is entered as 10, 0, 4, 2897, 7, -9, 16

The results go on:
SMILES	Mtb hypoxia rep	Mtb hypoxia rep growth	ugtP null kill	Autofluor counter	BJeLR viability	PrP 5UTR inh	RN4220 kill
Cc1csc(NC(=O)CCS(=O)(=O)c2ccc(Br)cc2)n1	.	.	4	4507	-4	-26	1.0
Cc1ccc(C(=O)N(CCc2ccccc2)Cc2ccccc2)cc1S(=O)(=O)N1CCCCC1	4	4	6	6373	-12	-18	-0.5
COc1ccc(N(Cc2ccccc2)S(=O)(=O)c2cc(C(=O)O)ccc2Cl)cc1	4	-3	-4	3865	-1	-29	-6.1
Cc1ccc2cc(C3CC(c4ccco4)=NN3S(C)(=O)=O)c(Cl)nc2c1 (configuration not stated)	7	3	6	.	19	0	0.8
O=C1CCc2cc(S(=O)(=O)NCc3ccccc3)cc3c2N1CC3	-1	-3	-2	?	14	-8	1.9
COc1cccc(NC(=O)CCSc2ccc3ccccc3n2)c1	5	8	4	2529	4	-28	-0.2
COC(=O)C1=C(C)N(CCc2ccc(OC)c(OC)c2)C(=O)/C1=C\c1ccc(O)cc1	8	6	-1	2170	1	-20	2.2
NC(=O)c1ccc(OCC(=O)N2CCNC2=O)cc1	11	7	6	3576	.	-9	4.2
CC1(CCBr)C(=O)N(c2ccccc2)c2ccccc21 (configuration not stated)	18	15	9	3684	-1	-10	1.3
O=S(=O)(Nc1nc2c(s1)CCCC2)c1ccc(Br)cc1	.	.	-11	3107	1	-21	13
C(=N\Nc1ccccc1)/c1ccc(N2CCOCC2)cc1	.	.	.	9396	-4	-109	.
CCOc1ccc(Cc2c(Cl)nc(N)nc2Cl)cc1	-7	1	-2	8798	-10	-22	-1.5
CN1CCN(CCCNC(=O)CCc2nnc3n(Cc4ccccc4Cl)c(=O)c4ccccc4n23)CC1	6	15	4	5540	11	-20	0.5
CN(CCN1CCOCC1)C(=O)CC1C(=O)NCCN1Cc1ccccc1C(F)(F)F (configuration not stated)	-13	-2	3	5433	6	-2	0.1
CCOc1cnn(-c2ccccc2)c(=O)c1Cl	9	2	10	4125	-3	-22	3.0
Cc1ccc(-c2nnn(CC(=O)N(Cc3cccs3)C(C(=O)NC(C)(C)C)c3ccc(C)o3)n2)o1 (configuration not stated)	5	14	8	15998	2	-13	6.9
Cc1ccccc1-c1nnn(C/C(N)=N/O)n1	.	.	.	2003	2	-11	.
CC(=O)NC1C(=O)N(CCN2CCOCC2)c2ccc(C)cc21 (configuration not stated)	9	0	-7	3853	3	-11	0.3
O=C1CCC(C(=O)N2CCN(c3ccc(F)cc3)CC2)CN1CC1CCCCC1 (configuration not stated)	-6	4	9	5651	6	-2	3.8
NC(N)=NCCCc1cn(CC(=O)N2CCNCC2)nn1	-2	10	-6	2898	7	-9	-0.9
CC(C)(C)NC(=O)C12CC3CC(CC(Cl)(C3)C1)C2	2	3	1	2434	-6	-13	3.5
Nc1c(C(=O)Nc2ccc(S(=O)(=O)N3CCCC3)cc2)sc2nc3ccc(OC(F)(F)F)cc3cc12	19	8	-10	10897	-1	14	3.1
O=C(O)C1CCCCC1C(=O)NCc1cn2ccccc2n1 (configuration not stated)	5	6	-5	4433	-6	-16	-16
CON(C)c1nc(OCCNC(=O)OCc2ccc(Cl)cc2Cl)nc(N(C)C)n1	8	6	5	10537	-7	-19	5.4
CSCC[C@H](NC(=O)COc1ccc(Cl)cc1)c1nc2ccccc2[nH]1	14	6	4	2719	7	-16	4.8
CN(C)/C=N/C(=S)Nc1ccccc1	.	.	.	4512	-17	-36	.
C=CCSC1=N/C(=C\c2sccc2C)C(=O)S1	3	5	20	15988	-4	1	14
Cc1cc2nc(C)n3c4ccccc4nc3n2n1	6	1	0	2895	11	-19	6.9
COc1ccc(NC(=O)CN2C(=O)NC3(CCCC3)C2=O)cc1S(=O)(=O)N1CCCCC1	6	2	0	3933	.	0	-1.2
COc1cccc(CN(C(=O)c2ccco2)C2CCS(=O)(=O)C2)c1 (configuration not stated)	-6	-8	5	3752	5	-1	3.5
OC(Cn1ccnc1)c1ccc(Cl)cc1Cl (configuration not stated)	4	-5	4	2383	1	-15	11
CC(C)C(NC(=O)COc1ccc2ccccc2c1)C(=O)N/N=C/C=C/c1ccccc1 (configuration not stated)	.	.	.	22567*	-3	-5	.
CC1CCCN(C(=O)c2ccc(S(=O)(=O)Nc3ccccc3Cl)cc2)C1 (configuration not stated)	-6	-15	-12	4364	12	-1	6.7
CCOc1ccc2[nH]c(C(=O)NN=Cc3ccccc3OC)cc2c1	9	-7	11	.	.	.	10
COc1ccccc1NS(=O)(=O)c1cccc(C(=O)NNC(=O)c2ccc(O)c(Cl)c2)c1	7	0	9	?	1	-17	9.6
Cc1cc(N2CCOCC2)nc(C(C)C)n1	3	-5	2	3273	2	-7	8.4
Cc1cc(Nc2ccc(N3CCC(C)CC3)cc2)n2ncnc2n1	-2	6	-2	11059	4	-15	4.4
COC(=O)c1ccc(NC(=S)N(Cc2cccnc2)Cc2ccco2)cc1	0	18	-2	4562	5	-27	-0.3
Cc1ccc(NC(=O)CCNC(=O)Nc2ccccc2)cc1S(=O)(=O)N(C)C	-7	6	-7	3660	.	-20	-6.5
COC(=O)c1cc(NC(=O)c2c(F)c(F)c(F)c(F)c2F)cc(C(=O)OC)c1	14	1	-13	2072	2	-10	7.9
CCC(C)C(NC(=O)OC(C)(C)C)c1cn(C(CCCCNC(=O)OC(C)(C)C)C(=O)N2CCN(C(=O)OC(C)(C)C)CC2)nn1 (configuration not stated)	-13	1	-3	.	.	.	0.1
COc1ccc(C(C#N)N2N=C(C)CC2(C)C)cc1OC (configuration not stated)	1	8	1	2787	15	-19	0.9
CC(=O)C1=C(C)NC(SCC(N)=O)=C(C#N)C1c1cccs1 (configuration not stated)	4	4	4	9151	14	-9	2.6
Cc1nc(CN(C)C(=O)c2cc(COc3c(F)cccc3F)on2)cs1	-6	7	-11	4211	-9	-6	-0.3
Cc1ccc(-n2c(Cc3cccn3C)nnc2SCC(=O)N2CCc3ccccc32)cc1	-2	3	1	12157	-1	-2	15
Cc1nc(C(F)(F)F)ccc1C(=O)Nc1ccc2ccccc2n1	8	6	1	3127	1	-7	-0.3
COc1ccc([C@H]2[C@H]3C=CC[C@@H](C)[C@@H]3C(=O)N2Cc2ccccc2)cc1Cl	.	.	.	4162	-1	-20	.
Cc1cccc(NC(=O)CCc2nc3sc4c(c3c(=O)[nH]2)CCCC4)c1	-7	0	2	.	15	-10	2.0
COc1ccc(CNC(=O)c2cc3c(=O)[nH]c4ccccc4c3n2C)cc1	0	2	15	4220	-1	-5	1.8
CC(=O)N1CCCc2cc(S(=O)(=O)N3CCCC3)ccc21	.	.	.	4658	3	-16	.
O=C(N=Nc1c(O)[nH]c2ccccc12)c1ccc(CN2CCOCC2)cc1	-9	-8	-3	4671	6	-31	-0.5
O=C(NC(=S)Nc1cccc2cccnc12)c1cccs1	-5	-3	-27	2629	-11	-23	-2.0
Brc1ccc2nc(-c3cccs3)c(NCC3CCCO3)n2c1 (configuration not stated)	6	13	11	4243	-4	-56	16
C=CCn1cc(C(=O)N2CCN(C)CC2)c(=O)c2cc(S(=O)(=O)N(CC)CC)ccc21	-9	9	1	3748	2	-6	1.9
COc1ccc(C(=O)Nc2ccccc2C(=O)N/N=C/c2ccccn2)cc1OC	.	.	.	6372	2	-79	.
CCOC(=O)c1ccccc1NC(=O)CSc1ccc(-c2ccccn2)nn1	13	4	13	5751	0	-29	5.2
CCOc1ccc(S(=O)(=O)N2CCCCC2)cc1NC(=O)C1=COCCO1	0	-2	13	4907	8	-17	6.9
Cn1cc(CN2CCC(n3nccc3NC(=O)C3CCCC3)CC2)cn1	8	5	11	5512	-1	2	1.6
Cc1ccc(CNC(=O)C(=O)NCCC2CCCCN2S(=O)(=O)c2ccccc2)cc1 (configuration not stated)	10	2	10	?	1	-12	4.0
CCOc1ccc(N(CC(=O)Nc2nccs2)S(=O)(=O)c2c(C)noc2C)cc1	.	.	-13	5709	4	-2	2.9
New compounds follow:
SMILES	Mtb hypoxia rep	Mtb hypoxia rep growth	ugtP null kill	Autofluor counter	BJeLR viability	PrP 5UTR inh	RN4220 kill
O=C(NCCCN1CCOCC1)c1cc(-c2ccc(F)cc2)no1	-8	-6	-5	5160	9	-29	-0.7
Nc1ccn(CC(=O)NCc2ccccc2)c(=O)n1	18	8	3	2744	.	-4	6.9
CCOc1cc(NC(=O)c2cccs2)c(OCC)cc1NC(=O)CCC(=O)NCC1CCCO1 (configuration not stated)	11	4	4	4494	0	-16	4.4
O=C(Nc1ccc(F)cc1F)N1CCN(c2ncccn2)CC1	4	9	-6	4533	4	-4	-8.6
CCN(CCCNC(=O)COc1cc(=O)n(CC)c2ccccc12)Cc1ccccc1	4	7	-3	9254	5	-7	4.9
C=CCSc1nnc(C)n1-c1ccc(Cl)cc1	12	5	5	4737	0	-38	1.6
Cc1ccccc1NC(=S)N(Cc1cccs1)C1CCCC1	4	1	2	3284	4	-18	1.7
CCOc1ccccc1NC(=O)C1CCC(CNc2c(N3CCOCC3)c(=O)c2=O)CC1 (configuration not stated)	3	16	8	5634	0	-20	2.7
